Bioassay records deposited in PubChem by several laboratories.
UCH37 inh – human UCH37 deubiquitinating enzyme inhibition; Q9Y5K5; purified proteasome/UCH37, Ub-AMC cleavage fluorescence; inhibition, % (concentration not given with the values); actives 0.33% (n = 330,000); AID 588478;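 active = mean of two replicates above 20%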;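 also: 0% = compound-free wells with enzyme and 100% = wells lacking proteasome; stock transfer was 100 nL into about 20 µL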
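Material: human UCH37 enzyme supplied as purified proteasome complex. Measure: % inhibition of Ub-AMC cleavage fluorescence. Medium: pH 7.4 Tris-HCl (50 mM) with ovalbumin, ATP-MgCl2, DTT. Times: 30 min preincubation with enzyme, 25 min cleavage at room temperature. Detection: AMC fluorescence intensity at 355/460 nm.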
FGF22 binding – binders of recombinant human FGF22 by thermal shift; SYPRO orange fluorescence; percent of sucrose octasulfate shift, DMSO zero; calls only at 9.99 µM; actives 1.5% (n = 340,000); AID 651658;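 active = melting point raised past a set limit in the mean and every replicate; three in four hits are not shown here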
Target sequence (Q9HCT0 whole entry, looked up): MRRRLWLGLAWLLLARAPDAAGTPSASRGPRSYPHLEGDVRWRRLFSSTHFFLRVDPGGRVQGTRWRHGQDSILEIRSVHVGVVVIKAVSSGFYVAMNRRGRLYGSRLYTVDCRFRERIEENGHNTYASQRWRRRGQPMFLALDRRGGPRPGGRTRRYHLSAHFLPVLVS
Ecoli growth – inhibitors of Escherichia coli growth; OD600, 23 h; stronger effect = lower value; OD600 absorbance (test concentration not listed); actives 0.21% (n = 330,000); AID 1053175;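 active = OD600 absorbance below the run mean of sample wells minus 3.6 SD, in any replicate, cut at about 0.56 in these data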;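 also: stock transfer was 300 nL into about 60 µL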
HNF4A DNA FP – change in binding of human HNF4 alpha to DNA. P41235. HNF4a-FITC DNA binding, fluorescence polarization, 1 h. activity change, % at 10 µM. actives 0.3% (n = 360,000). AID 1224865; in the data active = activity change above about 30%, passing the limit was not always enough;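 also: controls were the assay level and a saturating level of protein; the project sought stronger binding though the title names inhibitors; some compounds called inactive have numbers as strong as hits; positive values seem to mean higher polarization but the record does not say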
Target sequence (P41235 whole entry, looked up): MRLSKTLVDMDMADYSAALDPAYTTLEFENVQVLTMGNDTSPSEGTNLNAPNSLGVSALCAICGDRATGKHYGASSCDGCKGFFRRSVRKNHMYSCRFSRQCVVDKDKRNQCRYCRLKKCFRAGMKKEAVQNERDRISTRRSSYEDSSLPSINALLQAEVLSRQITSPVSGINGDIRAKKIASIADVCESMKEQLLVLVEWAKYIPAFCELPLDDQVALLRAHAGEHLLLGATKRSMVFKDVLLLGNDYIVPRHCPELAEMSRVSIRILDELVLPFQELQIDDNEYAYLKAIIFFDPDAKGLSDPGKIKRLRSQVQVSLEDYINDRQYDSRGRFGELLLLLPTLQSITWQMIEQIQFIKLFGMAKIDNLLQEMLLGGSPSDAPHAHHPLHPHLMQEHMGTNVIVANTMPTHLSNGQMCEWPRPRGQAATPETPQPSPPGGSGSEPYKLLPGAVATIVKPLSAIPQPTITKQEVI
ALR inh – blocks human ALR sulfhydryl oxidase activity. P55789. AID 485317. actives 3.8% (n = 290,000). purified ALR, DTT oxidation, H2O2 HRP-luminol luminescence. inhibition, % (concentration not given with the values);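 active = mean and each replicate at 75% or more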;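 also: stock transfer was 7.5 nL into about 7.5 µL; 0% = neutral wells and 100% = wells with inactivated enzyme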
Target sequence (P55789 whole entry, looked up): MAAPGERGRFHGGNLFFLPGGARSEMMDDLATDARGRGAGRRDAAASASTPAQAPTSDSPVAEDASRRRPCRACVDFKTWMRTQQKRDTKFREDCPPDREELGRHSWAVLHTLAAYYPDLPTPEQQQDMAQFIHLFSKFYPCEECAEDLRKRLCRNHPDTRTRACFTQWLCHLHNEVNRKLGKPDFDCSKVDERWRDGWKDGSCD
B2AR ag – human beta-2 adrenergic receptor agonism by FAP | P07550 | Am2.2-beta2AR cells, FAP receptor internalization, flow cytometry; reference of the scale not given here | response, % (test concentration not listed) | actives 0.43% (n = 340,000);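 active = response above a set limit, near 3 SD of response in nonfluorescent compounds, cut at about 42% in these data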;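 also: stock transfer was 100 nL into about 11 µL; a reference agonist was the positive control; negative values mostly stem from fluorescent compounds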
Ecoli rRNA inh – inhibits bacterial ribosomal RNA function over humanized ribosomes; E. coli WT GFP vs humanized-ribosome RFP mutants, fluorescence, 24 h; stronger effect = lower value; DMSO median 0, no signal -100; GFP signal change (wild-type ribosome), % (concentration not given with the values); actives 1.6% (n = 350,000);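 active = significant combined selectivity score with lowered wild-type GFP, culture density cut under 30%, mutant RFP and density less affected; inactive = any of these conditions unmet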; also: one replicate is shown; some compounds called inactive have numbers as strong as hits
Ecoli rRNA inh OD600 – recorded beside Ecoli rRNA inh, whose call it bears; OD600 change, %; measured here: OD600 growth;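 optical density of the mix in the first replicate; 0 = DMSO median and -100 = no signal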
Ecoli rRNA inh RFP – also measured in Ecoli rRNA inh; calls as there; RFP signal change, %; measured here: RFP humanized mutant strains;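 first replicate; 0 = DMSO median and -100 = no signal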
Starred values were filed as active, the others as inactive; i = inactive; · = not tested or not shown.

Under each structure: UCH37 inh | FGF22 binding | Ecoli growth | HNF4A DNA FP | ALR inh | B2AR ag | Ecoli rRNA inh | Ecoli rRNA inh OD600 | Ecoli rRNA inh RFP
1) O=C(CSc1nnc2ccccn12)N1CCOCC1
    1.0 | i | 0.684 | -1.7 | -7.7 | 0.1 | 8.4 | 15.7 | -3.4
2) O=C(Nc1nccs1)c1ccc2ccccc2n1
    0.8 | i | 0.639 | -0.4 | · | -6.9 | 5.9 | -0.4 | -0.7
3) O=C(NCCc1ccccc1)c1c[nH]c2ccc(F)cc2c1=O
    0.9 | i | 0.677 | 2.4 | · | -4.1 | -31.8* | -19.6* | -3.4*
4) Cc1ccccc1C(=O)c1cccn1CC(=O)NCCCN1CCc2ccccc2C1
    6.0 | i | 0.705 | -2.1 | -38.7 | -3.4 | -15.6 | -13.4 | 1.8
5) COc1ccccc1NC(=O)C(=O)N/N=C/c1cccs1
    · | i | · | -2.7 | -2.8 | 2.8 | 8.3 | 2.0 | -6.2
6) CCc1nc(NCc2cccnc2)c2oc3ccccc3c2n1
    1.7 | · | 0.643 | -2.6 | -9.5 | -27.2 | · | · | ·
7) CCOc1ccc2nc3cc(NCc4ccc(OC)cc4)ccc3c(N)c2c1
    -63.3 | · | 0.562 | -64.7 | -6.6 | -185.6 | -7.5 | 2.1 | 5.8
8) O=C(Nc1ccc(C(=O)OC[C@@H]2CCCN3CCCC[C@H]23)cc1)c1cccc(Br)c1
    0.9 | i | 0.675 | 2.5 | -1.5 | 17.4 | -44.0* | -29.1* | -13.3*
9) COc1ccc(OC)c(S(=O)(=O)NCCCc2ccccc2)c1
    -0.4 | i | 0.704 | -4.0 | 3.9 | 7.3 | -21.2 | -32.7 | -4.4
10) C=CCOc1ccc(/C=C/C(=O)Nc2ccc(C(=O)NC)cc2)cc1
    -296.5 | i | 0.696 | -4.0 | · | 2.2 | -4.8 | 0.4 | -3.2
11) Cc1oc2c(C)c(O)ccc2c(=O)c1-c1nncn1-c1ccccc1
    -12.2 | · | 0.657 | 16.6 | -1.3 | 7.8 | 15.3 | 6.4 | 0.7
12) Cc1ccc(CSCC(=O)N(CCC(C)C)c2c(N)n(Cc3ccccc3)c(=O)[nH]c2=O)cc1
    3.9 | i | 0.679 | 3.2 | -7.4 | -4.1 | 3.4 | 13.3 | -1.5
13) Cc1cccc(-c2nc(S(=O)(=O)c3ccc(F)cc3)c(NCCCN3CCOCC3)o2)c1
    1.4 | i | 0.714 | -0.7 | 6.3 | -2.5 | -40.0 | -41.3 | -6.5
14) O=C(Cn1nnc(-c2ccccc2)n1)N1CCCCC1
    -0.2 | i | 0.657 | 2.9 | · | -3.8 | 12.9 | 7.6 | -3.0
15) O=C(NCCCN1CCN(c2cccc(Cl)c2)CC1)c1ccc(N2CCCC2=O)cc1
    1.4 | · | 0.65 | 0.3 | 22.0 | -1.5 | · | · | ·
16) CN(CC(=O)Nc1cccc(F)c1)CC(=O)Nc1ccccc1[N+](=O)[O-]
    4.0 | i | 0.693 | 2.0 | · | -0.9 | 2.9 | 2.7 | 9.0
17) c1ccc2cc(OCc3nc4ccccc4[nH]3)ccc2c1
    4.3 | · | 0.696 | 0.2 | -14.2 | -7.9 | · | · | ·
18) C#CCOCCOCCOCCNc1nc(N2CCN(C(=O)CCCCCCCCCCNC(=O)Cn3cc(CCCCCN)nn3)CC2)nc(N2CCN(C(=O)CCCCCCCCCCNC(=O)[C@H](CO)n3cc(CCCCCN)nn3)CC2)n1
    1.9 | · | · | 37.9* | -9.8 | 22.4 | · | · | ·
19) Cc1occc1C(=O)N/N=C/C1=C(N2CCOCC2)C(=C\c2ccc(Cl)cc2)/CC1
    · | i | · | 1.9 | 40.5 | -8.2 | 2.9 | 8.0 | -2.4
20) Cc1ccc(N2CC(C(=O)NCC3CCCO3)CC2=O)cc1Cl (stereo not drawn)
    2.8 | · | 0.758 | -0.5 | -4.3 | 1.9 | · | · | ·
21) COc1ccc(-n2c(SCc3ccc(C#N)cc3)nnc2-c2ccccn2)cc1
    4.2 | · | 0.7 | 0.1 | -2.2 | -5.3 | · | · | ·
22) COc1ccc(C=C2SC(=O)NC2=O)cc1OC
    11.2 | i | 0.689 | 7.0 | · | 7.1 | -11.5 | -18.4 | 2.0
23) Cc1ccc2c(c1)COc1c3ccc(C(=O)NC(C)C)cc3nn1-2
    -13.5 | i | 0.639 | 1.3 | -4.5 | -1.8 | -4.1 | -2.0 | -1.7
24) CC1CCC(N2CCN(C(=O)c3ccccc3F)CC2)CC1 (stereo not drawn)
    1.4 | i | 0.71 | -3.4 | -5.6 | 16.1 | 7.6 | 5.1 | 1.7
25) CCOc1ccc(N2C(=O)CC(Cc3cc(C)cc(C)c3)C2=O)cc1 (stereo not drawn)
    3.5 | i | 0.686 | -0.7 | -1.6 | -7.4 | 5.8 | 9.8 | 1.0
26) CNc1nc(-c2ccc(S(=O)(=O)N3CCCCC3)cc2)cs1
    -17.0 | i | 0.705 | -1.5 | 19.5 | 1.8 | 0.0 | 9.2 | 29.9
27) Cc1cccc(OCc2ccc(C(=O)Nc3cc(C)on3)o2)c1
    2.0 | i | 0.678 | 3.1 | · | 11.2 | 7.2 | 12.1 | -2.5
28) O=C(O)c1cccc2c1C(=O)c1cccc3snc-2c13
    -1.2 | · | 0.676 | -1.1 | -14.8 | 4.6 | 6.5 | -1.4 | -2.5
29) COc1ccc(NC(=O)C2CCN(c3nc(-c4ccc(OC)cc4)no3)CC2)cc1
    3.0 | i | 0.774 | 3.5 | 21.2 | -9.9 | 11.4 | 12.4 | -0.1
30) Cn1cnc2c1c(=O)n(CC(O)CO)c(=O)n2C (stereo not drawn)
    2.4 | · | 0.697 | -3.5 | -18.0 | 2.5 | · | · | ·
31) COc1cccc(C(=O)N2CCC(C(=O)NCc3ccc(C)cc3)CC2)c1
    2.0 | i | 0.624 | 0.9 | -4.6 | 5.4 | 1.5 | 8.0 | -0.2
32) COc1ccccc1N(CC(=O)NCc1ccccc1C)S(=O)(=O)c1ccc(C)cc1
    3.6 | i | 0.698 | -3.8 | -7.1 | -1.3 | -29.8 | -45.6 | -5.1
33) O=C(NC1CCCC1)C(c1ccc(F)cc1)N(C(=O)Cc1cccs1)c1ccc2c(c1)OCCO2 (stereo not drawn)
    1.6 | · | 0.72 | 0.6 | -9.1 | -6.4 | · | · | ·
34) O=C(CCCN1C(=O)CCC1=O)Nc1ccccc1F
    2.5 | · | 0.752 | -2.4 | -2.8 | -3.2 | · | · | ·
35) O=C1c2ccccc2C(=O)N1CC1CCCO1 (stereo not drawn)
    5.5 | · | 0.759 | 4.9 | 0.9 | -3.5 | · | · | ·
36) CCc1ccc(CNC(=O)c2ccc(NC(=O)C3=CSCCO3)cc2)cc1
    6.7 | i | 0.681 | -1.9 | -0.8 | 102.4* | -1.9 | 5.2 | 4.4
37) COc1cccc(C2CC(c3cccs3)=NN2C(=O)CSC2=NCCS2)c1OC (stereo not drawn)
    -19.9 | i | 0.717 | 3.0 | -5.9 | 3.4 | -13.9 | -19.8 | -3.9
38) CC(/C=N/Nc1nc(N2CCCCC2)nc(N2CCCCC2)n1)=C\c1ccccc1
    · | · | · | 5.2 | 5.5 | 14.7 | · | · | ·
39) Cc1cccc(NC(=S)N2CCN(c3ccccn3)CC2)c1
    3.9 | i | 0.673 | 4.2 | · | -4.1 | 10.6 | 12.6 | 3.7
40) Cc1cccc(NC(=O)CSc2nnc(-c3ccco3)n2CC2CCCO2)n1 (stereo not drawn)
    -0.5 | i | 0.659 | -4.4 | -3.3 | 8.4 | 11.3 | 13.2 | -0.3
41) S=C(NCC1CCCO1)Nc1ccc(Cl)cc1 (stereo not drawn)
    3.6 | i | 0.684 | -2.2 | 1.7 | 0.1 | 10.4 | 4.9 | -1.4
42) CCn1ncc(Br)c1C(=O)Nc1cc(C)on1
    0.1 | i | 0.678 | -1.4 | · | -3.5 | 4.4 | 19.0 | 0.1
43) CC(=O)NCCNc1nc(NCc2ccccc2)nc2ccsc12
    · | i | · | 4.8 | · | · | 2.2 | 4.2 | -6.3
44) c1csc(-c2ccc3nncn3c2)c1
    · | i | · | 3.9 | · | · | 21.4 | 17.7 | -0.6
45) CC(=O)NC(c1ccccc1)c1nc(-c2cccnc2)cs1 (stereo not drawn)
    · | i | · | 1.3 | · | · | 7.0 | 8.9 | 1.3
46) Cc1ccccc1CN1C[C@@H]2C[C@@H](c3ccc4nsnc4c3)N3CCC[C@@]23C1=O
    4.6 | i | 0.7 | 4.1 | -3.7 | 0.1 | -1.7 | -7.8 | -2.2
47) CCOC(=O)[C@H]1[C@H]2COc3ccc(C)cc3[C@@H]2N2C(=O)c3ccc(F)cc3NC(=O)[C@@]12C
    -2.0 | i | · | 2.0 | · | 0.0 | -27.2 | -47.2 | 12.4
48) CCn1c(=O)c(C(=O)Nc2ncccc2O)c(O)c2ccccc21
    9.1 | i | 0.644 | 0.1 | · | 1.9 | -11.3 | -30.4 | -3.7
49) O=C(C1CC(=O)N(c2ccc(F)cc2)C1)N1CCCCC1 (stereo not drawn)
    1.4 | i | 0.704 | 4.0 | 4.8 | -0.4 | 10.4 | 20.0 | 0.1
50) Cc1ccc(CNC(=O)CN(c2cccc([N+](=O)[O-])c2)S(C)(=O)=O)cc1
    0.0 | i | 0.675 | -2.1 | · | -3.3 | 13.4 | 26.9 | -2.4

Additional entries follow.
Under each structure: UCH37 inh | FGF22 binding | Ecoli growth | HNF4A DNA FP | ALR inh | B2AR ag | Ecoli rRNA inh | Ecoli rRNA inh OD600 | Ecoli rRNA inh RFP
51) O=C(NCCN1CCCC1)c1cccc(Cl)c1
    0.8 | i | 0.689 | 0.9 | -6.5 | 0.2 | 11.0 | 9.2 | 1.8
52) CC(C)C(=O)NC(=S)Nc1ccc(S(=O)(=O)N2CCCC2)cc1
    3.1 | i | 0.69 | -4.5 | 10.6 | 1.1 | · | · | ·
53) Cc1ccccc1CCN1CCCC(CN(C)CC(C)(C)C)C1 (stereo not drawn)
    -1.5 | i | 0.642 | 2.2 | 4.6 | 4.2 | 12.7 | 8.0 | 1.9
54) O=C(NCCCN1CCN(Cc2ccccc2)CC1)c1nnc(Cc2c(F)cccc2Cl)o1
    6.7 | · | 0.719 | 0.2 | -17.4 | -16.5 | · | · | ·
55) COc1ccc(C2SCC(=O)N2c2nnc(C34CC5CC(CC(C5)C3)C4)s2)cc1 (stereo not drawn)
    4.7 | i | 0.725 | 0.5 | 2.7 | -6.9 | -4.9 | -2.9 | -2.6
56) COc1cc(/C=N/O)cc(Br)c1OC
    · | · | · | -0.7 | 89.8* | 7.3 | · | · | ·
57) Cc1ccc(NS(=O)(=O)c2ccc(CCC(=O)NCc3cccnc3)cc2)cc1
    0.4 | i | 0.683 | -0.2 | -1.3 | 4.4 | 5.2 | 4.3 | 0.6
58) CCCn1nc(NC(=O)c2ccco2)c2cc3cc(C)ccc3nc21
    -67.6 | · | 0.635 | 6.2 | 4.2 | -7.4 | -3.5 | 4.4 | -0.2
59) O=C(CCn1cnc2ccccc2c1=O)Nc1ccc(S(=O)(=O)N2CCCC2)cc1
    1.0 | · | 0.731 | 0.5 | -1.3 | -2.1 | · | · | ·
60) Cc1ccc2c(c1)N(CC(=O)NC1CCC(C)CC1)C(=O)CO2 (stereo not drawn)
    1.2 | · | 0.697 | 4.3 | · | -9.5 | · | · | ·
61) COc1ccc(-n2c3c(cc(C(=O)N4CCC(C)CC4)c2=O)C(=O)CC(C)(C)C3)cc1
    2.7 | i | 0.784 | -1.5 | 2.2 | -4.9 | 7.2 | 10.3 | 1.7

An excerpt; rates above refer to the full screens.
